Six1-Eya2 inh = qHTS Assay for Inhibitors of the Six1/Eya2 Interaction. Homeobox protein SIX1 (Homo sapiens) + Protein phosphatase EYA2 (Homo sapiens), …. AlphaScreen GST-Six1/His-Eya2 binding, biochemical; hits give low values; control for the full effect not named in the record. activity change, % (test concentration not listed). 0.56% of 360,000 active; in the data active = activity change below about -65%; inconclusive = about -30% to -65%; inactive = above about -30%; also: % is scaled to controls: 0 for no effect and ±100 for the full control effect; compound concentration not given in the record
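Compounds are tested against tagged Six1 and Eya2 proteins bridged by glutathione donor and nickel acceptor beads; after a one-hour incubation at 37 °C without light, AlphaScreen emission is recorded.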
D2 ag = Beta-Arrestin HTS for Positive Allosteric Modulators of the Human D2 Dopamine Receptor: Agonists; D(2) dopamine receptor (Homo sapiens), P14416; activation, % (concentration not given with the values); 0.084% of 360,000 active; DiscoveRx PathHunter D2 beta-arrestin, luminescence, 90 min; 100% = 57 uM dopamine signal; in the data active = activation above about 40%; inconclusive = about 15% to 40%; inactive = below about 15%; also: compound concentration not given in the record; the text of the record calls up to 30% inactive
Target sequence (P14416 whole entry, looked up): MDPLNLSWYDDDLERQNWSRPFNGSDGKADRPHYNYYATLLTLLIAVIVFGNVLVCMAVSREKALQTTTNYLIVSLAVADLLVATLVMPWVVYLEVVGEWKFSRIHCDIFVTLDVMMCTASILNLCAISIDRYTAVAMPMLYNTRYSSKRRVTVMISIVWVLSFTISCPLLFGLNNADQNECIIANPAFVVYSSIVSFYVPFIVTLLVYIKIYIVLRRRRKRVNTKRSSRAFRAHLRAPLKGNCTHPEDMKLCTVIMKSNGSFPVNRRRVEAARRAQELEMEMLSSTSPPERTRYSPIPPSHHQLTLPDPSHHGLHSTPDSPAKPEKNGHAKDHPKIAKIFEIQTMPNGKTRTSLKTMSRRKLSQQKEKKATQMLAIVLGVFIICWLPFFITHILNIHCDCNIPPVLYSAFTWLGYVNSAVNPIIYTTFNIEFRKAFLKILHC
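Agonist mode: compounds alone added to overnight-plated D2 PathHunter cells for 90 min at 37 C, with 57 uM final dopamine (EC100) defining full response. Beta-arrestin recruitment detected by chemiluminescent reagent, read after 1 h at ambient temperature.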
PINK1 expr mod = A Quantitative High throughput Screen to Identify Chemical Modulators of PINK1 Expression; PINK1 immunofluorescence, high-content cytometry, 24 h; 0.2% of 410,000 active; Potency, µM (doses to about 76.6 µM), inactives show at the highest dose activation (PINK1 increase), actives largely listed as activators; AID 624263, 2012; active = well fitted activation curve with a large enough effect; inconclusive = small, poorly fitted or top-dose-only effect; inactive = flat fitted curve, though single readings scatter; cell line not stated here;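 also: potency is read from the fitted curve at half-maximal effect; % of control where 0% means no effect; nearly all actives have a fitted effect of over 65% in size; a mitochondrial uncoupler was the plate control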
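Measures PINK1 amount and localization on or inside mitochondria by immunofluorescence. Stable cells get compounds at 5 concentrations for 24 hours before fixation and staining; CCCP controls included.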
CtBP-E1A inh = qHTS Assay for Inhibitors of the CtBP/E1A Interaction | CtBP / adenovirus E1A interaction (AlphaScreen) | 0.49% of 340,000 active | activity change, % (test concentration not listed) | AlphaScreen GST-E1A/His-CtBP binding, 1536-well; hits give low values; control for the full effect not named in the record; in the data active means activity change below about -65%; inconclusive means about -30% to -65%; inactive means above about -30%; also: % is scaled to controls: 0 for no effect and ±100 for the full control effect; compound concentration not given in the record
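Protein mix (5X: 125 nM each GST-E1A, His-CtBP) was incubated with pinned compound 2 h at 37 deg C in dark, in 50 mM Tris pH 8.0 buffer with 300 mM NaCl. Glutathione donor and nickel acceptor beads followed; AlphaScreen signal read after 1 h.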
Sfp PPTase inh = qHTS Assay for Inhibitors of Bacillus subtilis Sfp phosphopantetheinyl transferase (PPTase) | 4'-phosphopantetheinyl transferase ffp (Bacillus subtilis), Q9F4F7 | Biochemical Sfp PPTase activity, qHTS | Potency, µM, for inactives: max response, negative = inhibition, actives largely listed as inhibitors | 3.5% of 310,000 active; active = well fitted inhibition curve with a large enough effect; inconclusive = small, poorly fitted or top-dose-only effect, or another doubt; inactive = no such curve, though single readings can be large or run the other way;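 also: the enzyme is Sfp with the accession as filed and its product quenches rhodamine fluorescence; potency is read from the fitted curve at half-maximal effect; 0% = enzyme reaction without inhibitor and -100% = no enzyme wells; top concentration of the series not given in the record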
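With Hepes-Na pH 7.6 buffer containing 10 mM MgCl2, Sfp (15 nM) modified BHQ-2-YbbR (12.5 uM) using rhodamine-CoA (5 uM). Two reads 30 minutes apart at 525/598 nm yielded each well's rate.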
D2 potentiator = Beta-Arrestin HTS for Positive Allosteric Modulators of the Human D2 Dopamine Receptor: Potentiators; AID 624464, 2012; 0.23% of 360,000 active; D(2) dopamine receptor (Homo sapiens), P14416; DiscoveRx D2 beta-arrestin cells, luminescence, 90 min; 100% = 57 uM dopamine signal; potentiation, % (no concentration beside the values); active = potentiation of 50% or more; inconclusive = 30% to 50%; inactive = 30% or less;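 also: compound concentration not given in the record; tested on top of an EC20 dose of dopamine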
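D2 cells co-treated with compound plus 50 nM dopamine (EC20) for 90 min at 37 deg C to detect potentiation. Beta-arrestin recruitment was read as enzyme-fragment luminescence after 1 h at ambient temperature. Full response was set by 57 uM dopamine.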
TRPV1 potentiator = HTS Assay for Compounds that Act as Potentiators of the Vanilloid Receptor 1; AID 540277, 2011; 0.02% of 320,000 active; Transient receptor potential cation channel subfamily V member 1 (Homo sapiens), Q8NER1; potentiation, % at 8.33 µM; TRPV1-expressing cells, Fluo-8 calcium influx, capsaicin EC20 potentiation; host cell line not named in the record; control for the full effect not named in the record; active means potentiation above 80%; inconclusive means 30% to 80%; inactive means below 30%; also: 0% is about no effect
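Cells expressing TRPV1 were dye-loaded with Fluo-8 and read kinetically: 10 s baseline, 3 min after compound (agonist portion), then 2 min after EC20 capsaicin (allosteric enhancer portion). Calcium-bound dye fluorescence at 480/520 nm.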
The depositor's hits bear a star; u = inconclusive; x = not tested or not shown; & = joins results of further samples; ! = repeats disagree; [ ] = dose if it differs, or a comment.

Each structure is followed by: Six1-Eya2 inh	D2 ag	PINK1 expr mod	CtBP-E1A inh	Sfp PPTase inh	D2 potentiator	TRPV1 potentiator
> CC(C)CC1C(=O)N(Cc2cn(CC3CCCCC3)nn2)CCS(=O)(=O)N1Cc1ccc(-c2cccc(C#N)c2)cc1 (stereo not drawn)
    -3.4	-0.7	-0.2%	-28.6	x	x	x
> COC(=O)c1cccc(NC(=O)CSc2nc(O)c(-c3ccccc3)c(=O)[nH]2)c1
    -24.2	-0.6	0.0%	-18.5	16.3%	-15.3	5.0
> COc1ccc(OC)c(NC(=O)COC(=O)Cc2ccc(Br)cc2)c1
    16.7	-3.5	-0.2%	14.6	-7.4%	1.4	0.4
> COc1ccc(OC(C)c2ccc(C#N)c(=O)[nH]2)cc1 (stereo not drawn)
    4.7	2.9	0.0%	1.2	5.6%	1.2	3.9
> COc1cc(Br)cc(-c2nc3c(c(=O)[nH]c(=O)n3Cc3ccccc3)n2C)c1O
    -7.1	-1.0	0.0%	-0.2	-25.1%	1.7	-21.3
> COC(=O)c1ccccc1NC(=O)Cn1c(=O)n(CCC(=O)NC2CCN(Cc3ccccc3)CC2)c(=O)c2ccccc21
    2.6	-4.0	0.1%	-6.3	21.8%	-11.2	-1.8
> COCCNC(=O)C1CCCN(Cc2ccc(-c3ccccc3)cc2)CC1 (stereo not drawn)
    -4.9	-2.8	-0.8%	5.6	x	-9.3	x
> O=C(Cn1ncc(Cl)c(Cl)c1=O)NC1CCS(=O)(=O)C1 (stereo not drawn)
    0.0	-2.3	12.1%	-3.8	-5.8%	-6.1	-3.6
> CN(C)S(=O)(=O)c1ccc(C(=O)Nc2cccc(C(=O)O)c2)cc1
    23.4	-1.1	-3.2%	2.3	-9.2%	-2.1	2.6
> O=C(CSc1nc2c(c(=O)[nH]1)CCC2)Nc1ccccc1Cl
    8.0	-0.2	-0.8%	3.9	19.8%	1.2	14.0
> O=C(Nc1cccc(Cl)c1)c1csc(COCCO)n1
    3.3	-7.1	1.2%	1.4	x	-8.2	x
> CC(C)Cc1csc(NC(=O)c2ccc(Br)cc2)c1C(=O)O
    -0.3	-3.1	0.6%	4.2	19.2%	-2.9	x
> CCCNC(=O)C1(C)CCN(C(=O)C(c2ccccc2)c2ccccc2)C1 (stereo not drawn)
    1.8	-1.0	-0.8%	6.3	x	-3.7	x
> COc1ccc2cc(/C(C)=N/NC(=O)C3CC3)ccc2c1
    -1.3	-0.3	3.3%	-1.9	16.8%	0.4	0.6
> Cc1onc(-c2ccccc2Cl)c1C(=O)Nc1nnc(-c2ccc(Br)cc2)s1
    -19.3	12.5	27.3%	-15.5	38.8%	-2.8	17.9
> COc1ccc(Cn2c(O)c(/C=N/NC(=O)c3cccnc3)c3ccccc3c2=O)cc1
    -7.5	-3.5	-1.1%	-8.4	17.6%	1.6	22.5
> CCOc1cccc(C=Nc2cc(C)cc(C)c2O)c1O
    -4.2	1.9	-1.0%	-5.1	-8.3%	5.2	-1.2
> CCOCCCn1c(=NC(=O)c2cccnc2)c(C(=O)OCC)cc2c(=O)n3ccccc3nc21
    -7.1&-6.2	-2.3&-4.0	-0.5%&-1.0%	-6.3&8.8	16.0%	-13.6&13.8	8.0
> CC(=O)NCCc1c[nH]c2ccc(O)cc12
    5.7	3.4	1.1%	-0.7	13.6%&-10.6%	0.0	x
> COC(=O)c1sccc1NC(=O)c1cnc2cc(C)nn2c1C
    5.7	-2.0	1.5%	1.4	14.4%	3.0	3.6
> COc1ccc(OC)c(CN2CCSCC2)c1
    -8.5	-2.4	1.8%	3.1	-1.2%	-7.9	3.3
> CCc1nnc(NS(=O)(=O)c2ccc(NC(=O)c3cccc(Br)c3)cc2)s1
    -1.7	1.6	0.4%	-1.6	24.2%	-8.1	-3.7
> CCCNC(=O)C1(C)CCCN(C(=O)c2ccc3ccccc3c2)C1 (stereo not drawn)
    12.8	3.7	-0.3%	4.7	x	1.8	x
> C=CCN1C(=O)C(CC(=O)Nc2ccc(C)cc2)SC1=Nc1c(C)n(C)n(-c2ccccc2)c1=O (stereo not drawn)
    5.6	0.7	0.9%[38.3 µM]	17.6	0.0%	-20.6	7.3
> COc1ccc(-c2csc(N3CCN(c4cc(C)nc5ccccc45)CC3)n2)cc1OC
    -22.8	5.5	6.6%	-8.4	u	7.0	9.8
> Cc1cc(-c2ccccc2)cc(C)n1
    2.1	-2.0	3.9%	1.0	x	-1.1	x
> O=C(N/N=C1/CCS(=O)(=O)c2ccc(F)cc21)c1cccnc1
    -3.3	-4.1	2.5%	-1.2	19.5%	-1.6	-4.4
> COc1ccccc1NCc1nnc(SCC(=O)N/N=C/c2ccco2)n1-c1ccc(Cl)cc1Cl
    -6.7	-3.4	-0.4%	-10.8	8.4%	-8.3	12.9
> CC1=C(/C=C/C(C)=C/C=C/C(C)=C/C(=O)Nc2ccc(O)cc2)C(C)(C)CCC1
    -16.1&-2.7	12.1&3.4	-0.1%&-0.5%	5.8&-16.5	27.9%&24.4%&16.6%&3.8%	56.1*!	13.3
> O=C(C(=O)N1CCN(c2ccc(F)cc2)CC1)N1CCCCC1
    -9.4	-1.1	0.4%	-0.5	13.3%	-3.7	-0.5
> Cc1cc2ncn(/N=C/c3ccc([N+](=O)[O-])o3)c2cc1C
    -10.1	4.8	x	-9.0	5.2%	u	x
> Cc1ccccc1OCC(=O)NCCCNC(=O)c1ccccn1
    4.5	-5.5	0.6%	-6.1	-4.6%	-6.7	2.2
> CC(=O)OCC1=C(C(=O)O)N2C(=O)C(NC(=O)C(C)Cn3cc(Cl)cn3)C2SC1 (stereo not drawn)
    1.9	-3.5	1.8%	-12.0	-6.8%	-5.0	6.6
> Cc1cc(C)nc(NS(=O)(=O)c2ccc(N=NN(C)C)cc2)n1
    -3.3	1.9	0.3%	x	7.1%	2.6	3.8
> O=C(O)CC1S/C(=N/N=C/c2ccccn2)NC1=O (stereo not drawn)
    -14.9	-5.4	0.4%	x	16.1%	-3.7	x
> Cc1cc2nc(CN(C)C(=O)C3CCC(=O)N(C4CCCC4)C3)[nH]c2cc1C (stereo not drawn)
    1.0	4.5	0.8%	2.7	x	-12.8	x
> O=C(CC1Sc2ccccc2NC1=O)NCc1cccc(Cl)c1 (stereo not drawn)
    9.4	1.0	14.4%	16.2	-10.7%	6.5	2.0
> COC(=O)COc1ccc(C(C2C(=O)CC(C)(C)CC2=O)C2C(=O)CC(C)(C)CC2=O)cc1
    5.9	4.0	-2.9%	4.8	56.2µM*	1.4	-0.4
> CN(C)c1ccc(N2C(=O)CC(Nc3ccc(N4CCOCC4)cc3)C2=O)cc1 (stereo not drawn)
    10.4	1.4	-0.6%	-6.6	-8.9%	-10.9	27.2
> C=C(C)CN1CCN(c2c(CCC#N)c(C)c(C#N)c3nc4ccccc4n23)CC1
    1.6	-2.8	7.9%	6.3	5.3%	0.3	-3.0
> NS(=O)(=O)c1ccc(CCNC(=O)c2ccc(C#CC3(O)CCCCC3)cc2)cc1
    6.8	0.1	-1.2%	-4.7	3.2%	u	7.9
> CCOc1ccc(NC(=O)Cn2c(=O)n(CC3CCCO3)c(=O)c3ccccc32)cc1 (stereo not drawn)
    -8.4	-0.5	-0.1%&2.5%	-4.4	-0.7%	-7.5	0.7
> Cc1ccc(S(=O)(=O)N2CCOCC2)cc1NC(=O)CNC1CCCC1
    10.4	0.4	1.3%	-10.7	-28.9%	-5.0	4.7
> CCOc1ccc(CNC(=O)Cn2ccc3cc(S(=O)(=O)N4CCCC4)ccc32)cc1
    -1.4	2.8	0.3%	-6.5	3.4%	-5.8	-10.7
> COc1cc2[nH]c3c(Cl)ncnc3c2cc1OC
    u	0.1	-0.7%	-4.4	-9.3%	14.9	26.2
> O=C1NC[C@H](c2ccccc2)OC(=O)[C@@H](Cc2ccc(F)cc2)CC/C=C/C[C@@H]1CC(=O)N(CCO)Cc1ccccc1
    0.8	-9.0	0.2%	2.5	x	-19.2	x
> CC[N+](C)(C)CCN(Cc1ccc(Cl)cc1)c1ccccn1
    5.2	-1.4	0.2%	-1.5	6.2%	-12.5	4.3
> CCN1C(=O)[C@H]2[C@@H](c3ccc(OC)cc3)N[C@]3(CCCN(Cc4ccc(Cl)cc4)C3=O)[C@H]2C1=O
    16.7	-3.4	-1.8%	-2.4	x	0.8	x
> CCS(=O)(=O)N1CCN=C1SCc1cccc(F)c1
    3.1	3.6	1.6%	x	22.3%	-6.3	-12.8
> CCN(CC)c1ccc(/C=N/NC(=O)CNC(=O)c2cccs2)cc1
    -19.8	-4.2	5.4%	0.0	6.9%	-5.2	11.0
> C=CC[C@@H](CC(=O)N(CCO)Cc1ccccc1)C(=O)NC[C@H](OC(=O)[C@@H](CC=C)Cc1ccc(F)cc1)c1ccccc1
    -5.6	-10.7	-1.2%	-0.6	x	u	x

Screening data from PubChem.
